Screening results as filed in PubChem BioAssay.
RE007 growth inh – qHTS Assay for Inhibitors of the HIV-1 protein Vpr; S. pombe RE007 Vpr strain, BacTiter-Glo ATP luminescence, 24 h; control for the full effect not named in the record; Potency, µM (top dose mostly 92.2 µM), inactives show at the highest dose activity change, negative = less growth; 360,000 compounds, 0.21% hits; active = well fitted falling curve with a large enough effect; inconclusive = small, poorly fitted or top-dose-only effect; inactive = no such curve, though single readings can be large or run the other way;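 further: on the % scale 0 is the no-effect control and ±100 the full control effect; nearly all actives have a fitted effect of over 50% in size; the assay follows cell death caused by Vpr and the record does not say whether a fall means rescue or toxicity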
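Fission yeast strain RE007, carrying one chromosomally integrated HIV-1 vpr copy, was seeded at OD 0.01 in PMG+AL medium with 23 nL pinned compound. After 24 h at 30 °C and 99% humidity, viability was read by BacTiter-Glo luminescence.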
Cruzain inh Det – qHTS Assay for Promiscuous and Specific Inhibitors of Cruzain (with detergent); purified cruzain, Z-FR-AMC fluorescence, 0.01% Triton; Potency, µM, for inactives: max response, negative = inhibition, actives largely listed as inhibitors; 200,000 compounds, 0.43% hits;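 further: plate controls were neutral wells for no effect and buffer without enzyme for full effect; nearly all actives have a fitted effect of over 40% in size; top concentration of the series not given in the record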
Target sequence (P25779 123-467 limits assumed): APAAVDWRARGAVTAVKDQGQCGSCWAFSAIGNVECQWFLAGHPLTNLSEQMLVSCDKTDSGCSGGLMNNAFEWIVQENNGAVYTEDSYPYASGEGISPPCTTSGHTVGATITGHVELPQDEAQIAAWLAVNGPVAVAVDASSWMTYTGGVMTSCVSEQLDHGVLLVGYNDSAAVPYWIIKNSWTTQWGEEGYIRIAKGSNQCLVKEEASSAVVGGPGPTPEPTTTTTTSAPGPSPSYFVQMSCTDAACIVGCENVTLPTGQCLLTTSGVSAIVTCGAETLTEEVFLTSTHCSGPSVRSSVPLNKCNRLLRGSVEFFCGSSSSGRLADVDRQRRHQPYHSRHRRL
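Cruzain (1.5 nM) preincubated 15 min at RT with compound in 100 mM sodium acetate pH 5.5, 5 mM DTT, 0.01% Triton X-100. Reaction started with 2 uM Z-FR-AMC; AMC fluorescence (ex 360/em 450 nm) change over 60 s gave rate.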
Cruzain noTriton – qHTS Assay for Promiscuous and Specific Inhibitors of Cruzain (without detergent). Potency, µM, for inactives: max response, negative = inhibition, hits mostly inhibitors. 200,000 compounds, 2.3% hits. purified cruzain, Z-FR-AMC fluorescence, no detergent. Cruzipain (Trypanosoma cruzi), P25779. AID 1476, 2009;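 further: plate controls were enzyme without inhibitor for no effect and buffer without enzyme for full effect; nearly all actives have a fitted effect of over 40% in size; top concentration of the series not given in the record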
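Detergent-free condition (0.00005% Triton X-100) in acetate buffer pH 5.5 with DTT. 1.5 nM enzyme and compound were pre-mixed 15 min, then 2 uM Z-FR-AMC substrate added; reaction progress from fluorescence change between first and third reads (60 s).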
Marburg entry inh – qHTS for inhibitors of binding or entry into cells for Marburg Virus; Marburg virus pseudotyped entry inhibition, cell reporter; control for the full effect not named in the record; about a third of the inactives were read at about 46 µM; Potency, µM (doses to about 37.8 µM), inactives show at the highest dose activity change, negative = inhibition, most hits filed as inhibitors; 300,000 compounds, 1.8% hits; AID 540276, 2011; active = well fitted inhibition curve with a large enough effect; inconclusive = small, poorly fitted or top-dose-only effect, or effect the other way; inactive = flat fitted curve, though single readings scatter; tested in HEK293 cells; about a fifth of its hits are not listed in these tables; further: on the % scale 0 is the no-effect control and ±100 the full control effect; luciferase read-out
NS1 function inh – qHTS Assay for Inhibitors of Influenza NS1 Protein Function; 270,000 compounds, 0.4% hits; AID 2326, 2010; Potency, µM (doses to about 46.1 µM), for the others: top-dose activity, positive = more growth; S. cerevisiae slowed by influenza A NS1, growth recovery by OD600; active means well fitted rising curve with a large enough effect; inconclusive means small, poorly fitted or top-dose-only effect; inactive means no such curve, though single readings can be large or run the other way; further: nearly all actives have a fitted effect of over 50% in size
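In this qHTS, NS1 from influenza A is expressed in budding yeast, where it slows growth. Cells are switched from glucose to 2% galactose medium (pH 6.0, -URA), treated with compound, and growth recovery is read at OD600.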
LASV entry inh – qHTS for Inhibitors of binding or entry into cells for Lassa Virus; Potency, µM (doses to about 37.9 µM), without a hit: at the top dose activity change, negative = inhibition, usual class: inhibitors; Lassa virus pseudotype entry inhibition, cell reporter; control for the full effect not named in the record; 300,000 compounds, 1.2% hits; active means well fitted inhibition curve with a large enough effect; inconclusive means small, poorly fitted or top-dose-only effect, or effect the other way; inactive means flat fitted curve, though single readings scatter; tested in HEK293 cells; further: on the % scale 0 is the no-effect control and ±100 the full control effect; nearly all actives have a fitted effect of over 50% in size; luciferase read-out
SARS PLP yeast – qHTS of Yeast-based Assay for SARS-CoV PLP | Potency, µM (top dose mostly 32.9 µM), for the others: top-dose activity, positive = growth rescue | S. cerevisiae expressing SARS-CoV PLpro, growth rescue; control for the full effect not named in the record | AID 485353, 2010 | 330,000 compounds, 0.19% hits; active means well fitted rising curve with a large enough effect; inconclusive means small, poorly fitted or top-dose-only effect; inactive means no such curve, though single readings can be large or run the other way; further: 0% is about no effect; nearly all actives have a fitted effect of over 55% in size; growth read by luminescence after 48 h
2A StopGo – High Throughput Screening for Foot and Mouth Disease Virus Antivirals. human cells with a luciferase reporter of 2A StopGo recoding; control for the full effect not named in the record. Potency, µM (highest dose often 57.9 µM), without a hit: at the top dose signal change, negative = less light. 410,000 compounds, 1.2% hits. AID 1159524, 2015; active = well fitted falling curve with a large enough effect; inconclusive = small, poorly fitted or top-dose-only effect; inactive = no such curve, though single readings can be large or run the other way; tested in HEK293T cells; further: on the % scale 0 is the no-effect control and ±100 the full control effect; nearly all actives have a fitted effect of over 45% in size; luciferase light after 4 h
An asterisk follows results filed as active; ? = inconclusive; · = no result given; & = joins results of further samples; [ ] = remark or other dose. Unless noted, the call rests on the fitted dose curve; in most records, active means well fitted curve in the direction sought with a large enough effect; inconclusive means small, poorly fitted or top-dose-only effect, or another doubt; inactive means no such curve, though single readings can be large; an effect the other way counts as inactive or inconclusive. Potency means the concentration at half of the fitted maximal effect.

cpd	mol	RE007 growth inh	Cruzain inh Det	Cruzain noTriton	Marburg entry inh
1	O=C(NC1CC1)C1CSC(c2cccnc2)=N1 (configuration not stated)	-3%	-17%	?	2%
2	CN(C)C(=O)c1c(NC(=O)c2ccco2)sc2c1CCCCC2	2%	-2.8%	6%	-5%
3	COc1ccccc1N1CCN(c2ccc(Cl)nn2)CC1	4%	·	·	-1%[46.1 µM]
4	COc1ccc(CSc2ncn[nH]2)cc1[N+](=O)[O-]	8%	-3.1%	9%	7%
5	Cc1ccc(S(=O)(=O)/N=C(/c2ccccc2)N(C)C)c(C)c1	0%	·	·	-19%[46.1 µM]
6	Clc1ccc(Oc2nc(N3CCOCC3)nc(N3CCOCC3)n2)cc1	13%	0.8%	?	18%
7	O=C(COc1ccc2ccccc2c1)NNC(=O)C(=O)Nc1ccccc1	0%	·	·	3%[46.1 µM]
8	COc1ccc(C)cc1NC(=O)CN1CCN(S(=O)(=O)c2ccc(Cl)cc2)CC1	5%	-1.6%	25%	?
9	Brc1ccc(CNCC2CCCO2)cc1 (configuration not stated)	-14%	·	·	·
10	Cc1ccc(C(=O)NCCN2CCOCC2)cc1Cl	14%	1.8%	5%	20%

cpd	NS1 function inh	LASV entry inh	SARS PLP yeast	2A StopGo
1	-15%	-16%	-3%	5%
2	-1%	11%	15%	-3%
3	1%	13%[46.1 µM]	-1%	-9%
4	9%	?	21%	-16%
5	-2%	1%	-3%	36%[activator]
6	-1%	5%	·	-10%
7	5%	11%[46.1 µM]	6%	15%
8	-36%	-22%	2%	-20%
9	5%	·	8%	3%
10	-1%	19%	5%	·

Brought forward from above: 3 compounds; new compounds follow.
cpd	mol	RE007 growth inh	Cruzain inh Det	Cruzain noTriton	Marburg entry inh
8	COc1ccc(C)cc1NC(=O)CN1CCN(S(=O)(=O)c2ccc(Cl)cc2)CC1	5%	-1.6%	25%	?
9	Brc1ccc(CNCC2CCCO2)cc1 (configuration not stated)	-14%	·	·	·
10	Cc1ccc(C(=O)NCCN2CCOCC2)cc1Cl	14%	1.8%	5%	20%
11	Cc1cccc(OP(=O)(NCc2ccccc2)Oc2cccc(C)c2)c1	25%	-8.1%	-2%	?
12	O=C(Nc1ccc(S(=O)(=O)N2CCOCC2)cc1)c1ccc([N+](=O)[O-])o1	?	·	·	?
13	Cc1c(NC(=O)C(C)n2cc([N+](=O)[O-])cn2)c(=O)n(-c2ccccc2)n1C (configuration not stated)	-14%	·	·	4%[46.1 µM]
14	O=C(COc1cccnc1[N+](=O)[O-])Nc1ccc(S(=O)(=O)N2CCOCC2)cc1	-2%	·	·	17%[46.1 µM]
15	COC(=O)C(C(=O)OC)=C(/C=C/C=C/N(C)C)N(C)C	5%	-7.4%	-21%	14%
16	CC(=O)N1c2ccc(Cl)cc2C2C=CCC2C1c1cccc2ccccc12 (configuration not stated)	15%	-16%	?	?
17	CCC1(c2ccc(Cl)cc2)NC(=S)N(c2ccc(C)c(C)c2)N1 (configuration not stated)	-2%	·	·	·
18	CSc1sc(C)cc1C1C(C#N)=C(N)N(c2cccnc2)C2=C1C(=O)CC(C)(C)C2 (configuration not stated)	4%	-2.8%	1%	-8%
19	CCCCn1c(SCC(=O)Nc2nnc(CC)s2)nc2c1c(=O)n(C)c(=O)n2C	-3%	4.0%	3%	?
20	Cc1cc(C)c2c(N)c(C(=O)c3ccccc3)oc2n1	13%	-6.4%	7%	?

cpd	NS1 function inh	LASV entry inh	SARS PLP yeast	2A StopGo
8	-36%	-22%	2%	-20%
9	5%	·	8%	3%
10	-1%	19%	5%	·
11	-37%	-1%	-36%	22%
12	2%	-25%	-2%	-14%
13	·	·	1%	9%
14	·	-12%	1%	-2%
15	-6%	1%	3%	-17%
16	12%	?	-68%	-29%
17	1%	·	1%	7%
18	11%	1%	8%	-14%
19	5%	-41%[14.3 µM]	2%	-4%
20	-4%	28%[14.3 µM]	·	-5%

Later entries
cpd	mol	RE007 growth inh	Cruzain inh Det	Cruzain noTriton	Marburg entry inh
21	N#Cc1ccccc1NC(=O)Cn1cnc2onc(-c3cccc(F)c3)c2c1=O	·	3.7%	5%	·
22	Cc1ccc(OCC(=O)NNC(=O)CSc2ncc(C#N)c(N)n2)cc1	2%	-1.9%	-5%	-2%
23	CSc1nc(N)c2ncn([C@H]3O[C@H](COP(=O)(O)OP(=O)(O)OP(=O)(O)O)[C@@H](O)[C@@H]3O)c2n1	·	3.8%	3%	-31%
24	CCc1noc(C)c1C(=O)N1CCN(c2cccc(C)c2C)CC1	91%	·	·	-18%
25	CCC/C(O)=C1\C(=O)CC(c2ccccc2)CC1=NC (configuration not stated)	-14%	4.9%	1%	6%[46.1 µM]
26	O=C(NC(=S)Nc1ccccc1[N+](=O)[O-])c1ccco1	-20%	·	·	14%[46.1 µM]
27	CC1=C(C(=O)NC2CCC(C)CC2)C2(CCC(C)CC2)OC1=O (configuration not stated)	-8%	0.3%	-1%	·
28	O=C(Cc1nnc(NC(=O)c2ccccc2)s1)N/N=C/c1ccco1	-15%	-1.0%	?	-9%
29	Cc1cc(NC(=O)CCc2ccc(-c3ccccc3)o2)no1	6%	·	·	?
30	CCCCN(C(=O)CSc1nnc(Nc2ccc(C)c(C)c2)s1)c1c(N)n(Cc2ccccc2)c(=O)[nH]c1=O	-4%	-1.7%	?	?

cpd	NS1 function inh	LASV entry inh	SARS PLP yeast	2A StopGo
21	·	-15%[46.1 µM]	·	0%
22	0%	0%	-9%	-13%
23	·	·	·	-13%
24	·	?	1%	?
25	-55%	7%	·	-7%
26	·	?	0%	-3%
27	1%	·	-14%	-17%
28	14%	-6%	4%	-13%
29	3%	?	-4%	-2%
30	17%	?	0%	24%

(next part)
cpd	mol	RE007 growth inh	Cruzain inh Det	Cruzain noTriton	Marburg entry inh
31	O=C(NCCCN1CCCC1)c1cccc(N2CCCC2=O)c1	0%	-1.4%	0%	1%
32	CCN(C(=O)c1cnc(NC(C)C)cc1C(F)(F)F)c1ccc(Cl)cc1Cl	7%	·	·	?
33	O=C(CSc1nnc(-c2ccccc2)o1)N1CCCc2ccccc21	·	-5.2%	-2%	2%[46.1 µM]
34	O=C(Nc1ccccc1)Nc1nc(-c2ccc(Cl)cc2)cs1	-16%	1.7%	16µM*	2%
35	Cc1ccc(CCNC(=O)CN2C(=O)COc3ccc(S(=O)(=O)N4CCCC4)cc32)cc1	·	0.6%	1%	·
36	CCCCNCCOCCOc1ccccc1-c1ccccc1	-7%	2.3%	-3%	?
37	C=CCNC(=S)NNC(=O)c1ccc(=O)n(Cc2ccc(Cl)cc2Cl)c1	-10%	·	·	?
38	COc1ccc(NC(=O)COc2ccc3c(C)cc(=O)oc3c2)cc1S(=O)(=O)N1CCCCC1	6%	·	·	-25%[46.1 µM]
39	CC(NC(=O)c1ccccc1F)c1nnc(SCC(=O)N2CCN(c3ccccc3)CC2)n1C (configuration not stated)	-6%	·	·	29%[46.1 µM]
40	CC1CCCCC1NC(=O)COC(=O)c1ccc2c(c1Cl)C(=O)c1ccccc1C2=O (configuration not stated)	6%	-3.5%	?	?

cpd	NS1 function inh	LASV entry inh	SARS PLP yeast	2A StopGo
31	?	0%	23%	5%
32	-5%	?	-3%	-16%
33	·	23%[46.1 µM]	·	7%
34	-6%	-15%	-6%	11%
35	·	1%[46.1 µM]	·	-7%
36	1%	?	-6%	-23%
37	-5%	-5%[46.1 µM]	2%	-11%
38	·	9%	-1%	-10%
39	4%	-9%	0%	-12%
40	-2%	-13%	9%	-19%

Going on with the list.
cpd	mol	RE007 growth inh	Cruzain inh Det	Cruzain noTriton	Marburg entry inh
41	CCOC(=O)c1cnc2c(ccc3ccccc32)c1Nc1ccccc1O	·	-7.7%	-3%	11%[46.1 µM]
42	CCN(c1cccc(C)c1)S(=O)(=O)c1cccc(C(=O)O)c1	13%	1.4%	-7%	-5%&-5%
43	O=C(c1cccc(S(=O)(=O)N2CCN(c3ccccc3)CC2)c1)N1CCCC(C(F)(F)F)C1 (configuration not stated)	-3%	·	·	?
44	COc1ccc(OC)c(NC(=S)N(CCc2c(C)[nH]c3ccc(C)cc23)Cc2cccs2)c1	5%	-1.7%	25µM*	?
45	COC(=O)C1CCN(C(=O)COc2ccc(S(=O)(=O)N3CCOCC3)cc2Cl)CC1	2%	·	·	14%[46.1 µM]
46	COc1cccc(OCc2nc3ccccc3n2CCOc2ccccc2C)c1	·	-6.3%	7%	?
47	CS(=O)(=O)N(CC(=O)NCCSC1CCCCC1)c1cccc(F)c1	-6%	-3.0%	7%	-2%
48	COc1ccc(/C=N/NC(N)=S)cc1OC(=O)c1cccc2ccccc12	4%	1.2%	25µM*	?

cpd	NS1 function inh	LASV entry inh	SARS PLP yeast	2A StopGo
41	·	2%[46.1 µM]	·	7%
42	7%	-2%	?	27%
43	·	?	-2%	?
44	?	-17%	-9%	-12%
45	·	2%[46.1 µM]	-1%	-15%
46	·	-8%[46.1 µM]	·	-12%
47	-8%	-8%	-5%	-12%
48	2.2µM*	?	?	-26%

Of the compounds above, two contain a CF3 group:
cpd	mol	RE007 growth inh	Cruzain inh Det	Cruzain noTriton	Marburg entry inh
32	CCN(C(=O)c1cnc(NC(C)C)cc1C(F)(F)F)c1ccc(Cl)cc1Cl	7%	·	·	?
43	O=C(c1cccc(S(=O)(=O)N2CCN(c3ccccc3)CC2)c1)N1CCCC(C(F)(F)F)C1 (configuration not stated)	-3%	·	·	?

cpd	NS1 function inh	LASV entry inh	SARS PLP yeast	2A StopGo
32	-5%	?	-3%	-16%
43	·	?	-2%	?
